Compound activity as filed in PubChem.
gsp ag – qHTS for Agonist of gsp, the Etiologic Mutation Responsible for Fibrous Dysplasia/McCune-Albright Syndrome: qHTS | gsp mutant cells, cAMP HTRF, 30 min; control for the full effect not named in the record | actives 0.13% (n = 340,000) | AID 624287, 2012 | Potency, µM (top dose mostly 76.9 µM), for inactives: at the highest dose activation (cAMP increase), actives largely listed as activators; active = well fitted activation curve with a large enough effect; inconclusive = small, poorly fitted or top-dose-only effect, or another doubt; inactive = no such curve, though single readings can be large or run the other way; cell line not stated here;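 also: phosphodiesterase inhibitor Ro 20-1724 added with compounds to block cAMP breakdown; potency is read from the fitted curve at half-maximal effect; nearly all actives have a fitted effect of over 60% in size; about a fifth of the inactives were tested at one dose only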
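Cells stably selected in G418 were plated at 2000/well, grown 16-24 hr, then given compounds in DMSO with the PDE inhibitor […] (300 uM solution added) for 30 min at 37C; cAMP was read by HTRF.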
Menin-MLL FL inh – qHTS Assay for Inhibitors Targeting the Menin-MLL Interaction in MLL Related Leukemias: Competition With Fluorescein Labeled MLL-derived Peptide; Fluorescence polarization, fluorescein-MLL peptide displacement from menin; FP activity change, % at 61.4 µM; 290,000 tested, under 10 active; AID 1766, 2009; inconclusive = falling polarisation curve, or a change in total fluorescence; inactive = total fluorescence flat and polarisation flat or rising; no compound was filed as active; the % refers to the polarisation; negative = inhibition;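 also: % of control where 0% means no effect; inhibitors lower the polarisation; unlabelled MLL peptide was the positive control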
TRPML1 blocker – qHTS for Inhibitors of the Human Mucolipin Transient Receptor Potential 1 (TRPML1); Mucolipin-1 (Homo sapiens), Q9GZU1; TRPML1-inducible cells, Ca2+ dye fluorescence, FDSS; stronger effect = lower value; inhibition of EC80 agonist-evoked calcium signal; AID 624415, 2012; actives 0.02% (n = 390,000); activity change, negative = inhibition, % (no concentration beside the values); in the data active means activity change below about -50%; inconclusive means about -30% to -50%; inactive means above about -30%;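 also: stimulus is agonist 54-4 at its EC80 concentration; % is scaled to controls: 0 for no effect and ±100 for the full control effect; compound concentration not given in the record; the text of the record puts the active cut at -80%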
Target sequence (Q9GZU1 whole entry, looked up): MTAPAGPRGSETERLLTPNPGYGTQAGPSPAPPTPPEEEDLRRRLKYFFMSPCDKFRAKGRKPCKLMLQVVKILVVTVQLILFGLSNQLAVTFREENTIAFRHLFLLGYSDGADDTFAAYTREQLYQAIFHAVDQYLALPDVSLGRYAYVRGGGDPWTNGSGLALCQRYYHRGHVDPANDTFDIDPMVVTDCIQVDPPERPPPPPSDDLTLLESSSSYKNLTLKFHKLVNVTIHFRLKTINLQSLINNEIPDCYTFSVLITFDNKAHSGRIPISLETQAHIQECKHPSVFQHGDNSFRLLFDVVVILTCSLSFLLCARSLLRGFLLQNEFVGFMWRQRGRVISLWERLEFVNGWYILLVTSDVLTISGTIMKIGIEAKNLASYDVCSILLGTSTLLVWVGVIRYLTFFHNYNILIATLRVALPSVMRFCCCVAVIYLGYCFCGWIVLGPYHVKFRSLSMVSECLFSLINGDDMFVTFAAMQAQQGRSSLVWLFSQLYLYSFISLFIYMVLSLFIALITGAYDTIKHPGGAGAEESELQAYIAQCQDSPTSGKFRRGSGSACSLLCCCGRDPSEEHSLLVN
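Tet-induced TRPML1-DL cells loaded with Ca8 no-wash calcium dye were read kinetically on FDSS. Compound addition was followed by EC80 agonist 54-4 (4 uM final); inhibition was read over 110 s.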
TRPML1 agonist – qHTS for Agonists of the Human Mucolipin Transient Receptor Potential 1 (TRPML1); actives 0.12% (n = 410,000); Mucolipin-1 (Homo sapiens), Q9GZU1; activation, % (no concentration beside the values); TRPML1-expressing cells, Ca2+ dye fluorescence, FDSS; host cell line not named in the record; reference of the full effect not given here; AID 624414, 2012; in the data active = activation above about 50%; inconclusive = about 30% to 50%; inactive = below about 30%; also: 0% is about no effect; the text of the record puts the active cut at 80%
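Tetracycline-induced TRPML1-DL cells are seeded and incubated overnight before loading with a no-wash Ca2+ dye and quencher. Agonist activity is taken from the 110 s fluorescence read following compound pin-transfer on an FDSS, before EC80 54-4 challenge.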
gsp antag – qHTS for Antagonists of gsp, the Etiologic Mutation Responsible for Fibrous Dysplasia/McCune-Albright Syndrome: qHTS. actives 0.4% (n = 340,000). gsp-mutant cells, cAMP HTRF, 30 min; control for the full effect not named in the record. Potency, µM (doses to about 76.9 µM), for inactives: at the highest dose activity change, negative = inhibition, hits mostly inhibitors. AID 624288, 2012; active = falling curve of any shape with a large fitted effect; inconclusive = falling curve, mostly with a smaller effect; inactive = flat or rising curve; cell line not stated here;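 also: intracellular cAMP measured with PDE inhibitor Ro 20-1724 present during compound exposure; potency is read from the fitted curve at half-maximal effect; % is scaled to controls: 0 for no effect and ±100 for the full control effect; nearly all actives have a fitted effect of over 65% in size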
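Cells in G418 medium, seeded 16-24 h, 37C; buffer exchange to DPBS + 1 mM CaCl2, 0.5 mM MgCl2, 0.05% BSA; cpds in DMSO + […] (300 uM stock), 30 min 37C; HTRF cAMP detection.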
ClpP mod – qHTS Assay for Activators of ClpP | purified B. subtilis ClpP, FRET peptide cleavage, 20 min | Potency, µM (top dose mostly 57.5 µM), inactives show at the highest dose activity change, negative = active | actives 1.9% (n = 340,000) | AID 651965, 2013; active = well fitted falling curve with a large enough effect; inconclusive = small, poorly fitted or top-dose-only effect; inactive = no such curve, though single readings can be large or run the other way; also: potency is read from the fitted curve at half-maximal effect; the source files actives as falling curves though it sought activators and does not explain the sign; nearly all actives have a fitted effect of over 65% in size; many hits overshoot -100%
Target sequence (P80244 whole entry, looked up): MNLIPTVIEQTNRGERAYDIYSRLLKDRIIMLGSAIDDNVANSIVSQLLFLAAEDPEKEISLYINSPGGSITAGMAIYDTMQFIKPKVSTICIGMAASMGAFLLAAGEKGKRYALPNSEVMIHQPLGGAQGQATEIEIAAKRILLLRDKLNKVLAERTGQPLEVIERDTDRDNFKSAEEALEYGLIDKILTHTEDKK
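FRET quenching reversal measured ClpP activation: 10 microg/mL B. subtilis ClpP at pH 8 with the FRET-FV decapeptide, read at 430 nm after 320 nm excitation. The 20-min minus 0-min signal was scaled between DMSO/no-enzyme wells and ADEP (5.8 microM final).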
An asterisk follows results filed as active; u = inconclusive; x = not tested or not shown; [ ] = dose if it differs, or a comment.

SMILES	gsp ag	Menin-MLL FL inh	TRPML1 blocker	TRPML1 agonist	gsp antag	ClpP mod
O=c1cc(CSc2nnc(-c3cccnc3)n2-c2ccccc2F)nc2sccn12	1%	-13	-8	1.7	-5%	-7.5%
CCOC(=O)C(=O)/C(=C\N(C)C)c1onc(-c2c(Cl)cccc2Cl)c1C(=O)OC	3%	-4.2	-4	0.8	3%	4.3%
O=c1cc(-c2ccc(F)cc2)oc2ccccc12	0%	x	-14	-1.9	0%	1.3%
Cc1ccc(C(=O)c2oc3ccccc3c2NC(=O)COc2ccccc2C)cc1	x	x	14	0.3	x	-7.6%
O=P(Cc1ccccc1)(c1ccccc1)c1ccccc1	10%	3.5	3	-0.2	12%	1.7%
O=C(/C=C/c1ccccc1)CC(O)(c1ccccc1)C(F)(F)F (configuration not stated)	-7%	-6.3	-6	0.6	7%	-0.4%
S=c1nc(-c2cccc(Br)c2)[nH][nH]1	21%	-0.3	-1	-0.1	-3%	-22%
Cc1ncc(CO)c2cc(C(N)=O)c(=Nc3ccccc3)oc12	19%	1.7	3	0.5	17%	-1.6%
Cc1ccc(S(=O)(=O)c2nc(-c3ccccc3F)oc2N2CCCCC2)cc1	x	x	-6	-0.2	x	u
CCN(C(=O)Cc1nc(-c2ccc(OC)cc2)no1)c1cccc(Cl)c1	x	x	-7	0.0	x	-0.5%
O=C(CCc1nc2ccccc2c(=O)[nH]1)Nc1cc(Cl)ccc1N1CCCC1	5%	x	8	2.6	4%	1.8%
Cc1cc[n+](-c2[nH]c(=O)sc2/C=N/NC([S-])=Nc2ccccc2)cc1C	-13%	u	8	6.8	-1%	-3.2%
CN(C(=O)CSc1nnc(-c2cccs2)n1C1CC1)C1CCS(=O)(=O)C1 (configuration not stated)	4%[15.4 µM]	x	-19	-0.3	-13%	-14%
COc1ccc(C)cc1NC(=O)CC1NCCNC1=O (configuration not stated)	x	x	5	0.3	x	-1.4%
CCCc1ccc(-c2ccc(-c3noc(-c4ccncc4)n3)cc2)nc1	24%[15.4 µM]	1.2	-10	0.2	22%	48%
O=C(Cc1ccc(Cl)cc1)N1CCN(C(=O)c2ccco2)CC1	8%	1.4	0	1.9	10%	0.2%
CCOc1ccc(CCNC(=O)COC(=O)/C=C/c2ccc(OC)c(OC)c2)cc1OCC	24%	x	-6	-0.4	-17%	-28%
COC(=O)c1cc2sccc2n1Cc1nc(-c2ccc(OC)cc2)oc1C	16%	5.1	31	1.1	-7%	-17%
COC(=O)c1c(C)oc2ccc(N(C(=O)c3ccncc3)S(=O)(=O)c3ccc4ccccc4c3)cc12	-30%	0.6	52	2.1	16%	1.3%
Cn1ncc([N+](=O)[O-])c1C(=O)Nc1cccc2ccccc12	24%	0.9	-22	0.8	6%	x
Cc1cc(C=O)c(C)n1-c1cccc(C(=O)O)c1	-12%[15.4 µM]	1.7	-2	-0.1	8%	x
CCc1ccccc1NC(=O)Nc1cc(C(=O)NCc2ccc(C(C)C)cc2)ccc1N1CCCC1	x	x	-10	-0.3	x	1.1%
Cc1c(Cc2ccccc2)c(=O)oc2c(C)c(OCC(=O)N3CCC(C(=O)O)CC3)ccc12	x	-1.5	x	x	-18%	5.0%
COc1ccc(/C=C/c2ccncc2)cc1	1%	-1.4	4	0.5	-7%	-25%
O=C(O)c1ccccc1SCc1cn2ccccc2n1	-15%[15.4 µM]	1.8	7	0.4	11%	-0.6%
SMILES	gsp ag	Menin-MLL FL inh	TRPML1 blocker	TRPML1 agonist	gsp antag	ClpP mod
CCN(CC)CCOC(=O)c1ccc(NC(=O)/C=C/c2cccs2)cc1	1%	2.1	-3	0.0	9%	-0.5%
CSC1=NCCN1S(=O)(=O)c1ccccc1	-18%	0.1	-15	0.5	11%	0.2%
COc1cc(N2CCOCC2)ccc1C=C(C#N)C#N	-33%[inhibitor]	u	-17	-0.5	2%	-2.9%
COC(=O)c1cccc(NC(=O)C2CCN(S(=O)(=O)Cc3ccccc3)CC2)c1C	x	x	4	-1.1	x	0.1%
CC[C@H](C)[C@H]1CNC(=O)C(=O)N1CC1CCN(CCc2ccc(Cl)c(Cl)c2)CC1	x	x	-4	-0.5	-7%	-0.3%
CCOC(=O)C(=O)Nc1ccccc1C(=O)OC	7%	1.9	-1	-0.2	-2%	1.4%
Cc1cccc(N2CCN(C(=O)CCNS(=O)(=O)c3ccc4c(c3)CCC(=O)N4)CC2)c1C	18%	3.8	16	1.4	-14%	0.0%
Cc1nc(C(F)(F)F)nc(Nc2ccc(N=Nc3ccccc3)cc2)c1C#N	-31%[inhibitor]	4.3	-1	2.3	0%	2.4%
CCOCCc1nn2c(=O)cc(COC(=O)c3cccc(C)c3)nc2s1	x	x	3	1.8	x	-1.3%
CCCNC(=O)C1(C)CCN(C(=O)c2ccccc2OC)C1 (configuration not stated)	x	x	14	0.0	x	-2.3%
CC(=O)C1=NN(c2ccccc2)C(c2ccc3c(c2)OCO3)N1c1ccc(N2CCOCC2)cc1 (configuration not stated)	1%	8.4	-17	0.0	-10%	-28%
CCOC(=O)c1[nH]c(=O)[nH]c1CSc1ccccn1	u	0.3	-3	-0.8	6%	-1.5%
O=C(COc1ccc(Cl)cc1)N1CCN(S(=O)(=O)c2ccccc2)CC1	-37%[inhibitor]	0.3	-6	0.4	-11%	-1.3%
Cc1nnsc1NC(=O)OCc1ccccc1Cl	-29%	1.6	31	-0.5	5%	0.8%
C=CCn1c(SCC(=O)c2ccccc2)nnc1-c1ccc2c(c1)OCO2	0%	2.5	0	-1.6	1%	u
CCOc1ccccc1N(CC(=O)NCCSc1ccccn1)S(=O)(=O)c1ccc(C)cc1	7%[15.4 µM]	x	-18	2.0	u	x
CCN(CC)C(=O)c1sc(NC(=O)Cc2ccccc2)c(C#N)c1C	2%	7.0	-6	-0.2	2%	8.4%
CCOc1ccc(N2CC(NC(=O)C3CC3)CC2=O)cc1 (configuration not stated)	x	x	-15	0.9	x	0.2%
CC(=O)Nc1ccc(NC(=O)COc2cccc3ccccc23)cc1	-6%	x	11	-0.8	x	0.3%
COC(=O)c1cc(C(=O)N2CCN(c3ncccn3)CC2)cc([N+](=O)[O-])c1	33%	0.5	u	1.0	-4%	x
COc1ccccc1CCC(=O)Nc1ccc(S(=O)(=O)Nc2ncccn2)cc1	-16%	x	9	-1.1	x	-1.9%
NC(=S)c1cc2cc(Cl)ccc2oc1=O	-11%[15.4 µM]	21	19	0.0	-5%	x
N#Cc1c(C(F)(F)F)cc(-c2ccc(F)cc2)nc1SCC(=O)O	15%[15.4 µM]	10	16	-0.9	-81%	x
Cc1ccc(NC(=O)CSC2=Nc3ccccc3C3=NC(Cc4ccccc4)C(=O)N23)cc1C (configuration not stated)	x	x	-1	1.1	x	-22%
O=C(Nc1ccccc1-c1ccccc1)C1CCCN(c2ncccn2)C1 (configuration not stated)	-4%	-1.6	1	0.8	-5%	u

Four compounds from above, arranged by the number in TRPML1 blocker, lowest first:
Structure,TRPML1 blocker
CSC1=NCCN1S(=O)(=O)c1ccccc1,-15
CCOC(=O)c1[nH]c(=O)[nH]c1CSc1ccccn1,-3
Cc1ccc(NC(=O)CSC2=Nc3ccccc3C3=NC(Cc4ccccc4)C(=O)N23)cc1C (configuration not stated),-1
N#Cc1c(C(F)(F)F)cc(-c2ccc(F)cc2)nc1SCC(=O)O,16

2 compounds picked at random from those above, as already listed:
SMILES	gsp ag	Menin-MLL FL inh	TRPML1 blocker	TRPML1 agonist	gsp antag	ClpP mod
N#Cc1c(C(F)(F)F)cc(-c2ccc(F)cc2)nc1SCC(=O)O	15%[15.4 µM]	10	16	-0.9	-81%	x
CC[C@H](C)[C@H]1CNC(=O)C(=O)N1CC1CCN(CCc2ccc(Cl)c(Cl)c2)CC1	x	x	-4	-0.5	-7%	-0.3%

Further structures
SMILES	gsp ag	Menin-MLL FL inh	TRPML1 blocker	TRPML1 agonist	gsp antag	ClpP mod
c1cncc(C2Nc3ccccc3-c3nc4ccccc4n32)c1 (configuration not stated)	-21%	0.2	-14	-0.5	0%	3.2µM*
O=c1c2ccccc2ncn1Cc1ccco1	13%	2.8	-9	0.1	5%	-9.4%
COC(=O)/C=C1/S/C(=N/N=C/c2ccco2)NC1=O	5%[15.4 µM]	-1.4	-1	-0.6	u	-29%
COc1ccc(CCNC(=O)NC2CCCCC2)cc1OC	-77%[inhibitor]	u	-7	-0.6	4%	-0.8%
COc1cccc(NC(=S)NN2CCN(C)CC2)c1	23%	2.2	3	-0.6	2%	-3.5%
COc1ccc(-c2noc(CCC(=O)Nc3cc(OC)ccc3OC)n2)cc1	22%	1.2	10	1.5	-11%	1.8%
S=c1[nH]nc([C@@H]2C[C@H]2c2ccccc2)n1-c1ccccc1	5%[15.4 µM]	x	1	-0.8	-2%	1.0%
Cc1c(NC(=O)c2cccc(NC(=O)c3ccco3)c2)cccc1C(=O)O	-6%	1.0	-6	0.8	0%	-2.2%
N/C(=N\NC(=O)c1cccs1)c1cc2ccccc2oc1=O	-9%	3.9	0	0.6	-3%	-2.4%
CCCCN(CCCNC(=O)c1cc(Nc2ccc(OC)cc2OC)nc2ccccc12)Cc1ccccc1	x	x	1	2.2	x	-3.6%
CN1CCC(NC(=O)c2cccc(Oc3ccccc3)c2)CC1	24%	0.9	38	-0.1	14%	-0.4%
CC1CCCC(C)N1C(=O)COC(=O)c1ccc([N+](=O)[O-])o1 (configuration not stated)	14%	x	10	-0.1	13%	x
Cc1onc(-c2ccccc2)c1C(=O)NNC(=S)NC(=O)c1ccc(Br)cc1	5%	-1.6	24	u	-3%	-3.0%
O=C(Nc1ccccc1)N(C1=NCCCCS1)c1ccccc1	3%	-1.0	5	-0.6	-13%	-9.9%
COc1cccc(Cn2c(CNS(=O)(=O)c3ccc4c(c3)CCCC4)nc3cccnc32)c1	x	x	-15	-0.4	x	-7.7%
O=C(c1ccc(N2CCCCC2)c([N+](=O)[O-])c1)N(Cc1ccccc1)c1ccccn1	u	0.3	7	1.5	-19%	0.3%
O=C(Cc1cccs1)Nc1cccc(-c2nc3cc4ccccc4cc3[nH]2)c1	-20%	x	6	-0.1	-12%	28µM*
CCOC(=O)C1=C(c2ccccc2)N=c2s/c(=C\c3cccc(O)c3)c(=O)n2C1c1cccs1 (configuration not stated)	-39%[inhibitor]	3.1	31	1.7	1%	-16%
COC/C=C/C1=CC(=O)C[C@H](c2ccc3c(c2)OCO3)C1	x	x	-3	-0.2	1%	0.0%
COc1ccc(-c2nc(SC(C)C(=O)NC3CC3)n[nH]2)cc1 (configuration not stated)	2%	x	0	-0.3	12%	2.5%
